High-throughput results (PubChem BioAssay)
MT1-MMP reporter – inhibitors of MT1-MMP promoter transcription, cell-based, luciferase reporter, luminescence (AID 618) | 87,000 compounds, 0.62% hits | MT1-MMP promoter luciferase reporter cells, luminescence | calls from a first round at 10 µM; hits with a dose series show EC50 in µM;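 active = over half of the reporter light lost at 10 µM or EC50 under 50 µM; inactive = the rest and hits that failed the dose series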;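 note: actives suppress MT1-MMP promoter-driven transcription so potencies describe inhibitors; HT1080 fibrosarcoma cells; overnight exposure; toxic or luciferase-blocking compounds were not removed from the actives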
Hsc70 – Hsc70 inhibitors, probe displacement, primary screen, biochemical, fluorescence polarization (AID 568) | displacement, % at 20 µM, or IC50 in µM where a hit was titrated | 83,000 tested, under 10 active | Hsc70 fluorescence polarization, probe displacement; higher % means a stronger effect; strong numbers were not always called active;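 active = displacement above 50% without optical interference and an IC50 on retest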;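 note: ATPase domain with a fluorescein-tagged ATP probe; 0% = vehicle and 100% = excess ADP; read after one hour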
WNV NS2B-NS3 inh – inhibitors of West Nile virus NS2B-NS3 protease | P06935 | WNV NS2B-NS3 protease, fluorogenic substrate Ex360/Em465; active compounds read low | z-score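 (tested at a level between 10 and 100 µM)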 | 65,000 compounds, 0.18% hits | AID 577;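 active = z-score at -3 or under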;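 note: score is relative to mean and spread of the compound wells of a plate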
Target sequence (P06935 1371-1501 limits assumed): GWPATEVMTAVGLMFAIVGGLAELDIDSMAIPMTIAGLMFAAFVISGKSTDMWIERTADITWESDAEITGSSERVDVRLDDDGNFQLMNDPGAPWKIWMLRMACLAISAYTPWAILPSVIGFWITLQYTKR
Target sequence (P06935 1502-1679 limits assumed): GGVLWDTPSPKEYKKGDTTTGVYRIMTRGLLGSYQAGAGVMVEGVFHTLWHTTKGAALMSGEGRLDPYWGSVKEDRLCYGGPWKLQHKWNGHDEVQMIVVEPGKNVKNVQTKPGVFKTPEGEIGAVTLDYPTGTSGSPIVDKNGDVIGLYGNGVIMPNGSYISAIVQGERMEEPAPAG
* = called active by the depositor; i = inactive; . = not tested or not shown. These rows are one share of the data; rates above refer to the full screens.

Preview, 6 compounds:
SMILES	MT1-MMP reporter	Hsc70	WNV NS2B-NS3 inh
CC(=O)N=C1SC2CS(=O)(=O)CC2N1c1c(Cl)cccc1Cl (stereo not given)	i	2.0%	-0.01
COc1cc(-c2nnc(SCC(=O)Nc3ccc4c(c3)OCCO4)o2)cc(OC)c1OC	i	-0.3%	.
CCC(C)NC(=O)COc1ccc(Br)c(C)c1 (stereo not given)	i	2.6%	.
COC(=O)CSc1ccc2c(N)c(C(=O)OC)sc2c1	i	6.9%	-0.43
C=CCn1c(SCC(=O)NCc2cccs2)nnc1C1CCCCC1	i	-2.6%	-0.16
COc1ccc(CC(=O)Nc2cc(=O)n(C)c(=O)n2C)cc1	i	-6.0%	-0.7

The list itself, previewed entries included:
SMILES	MT1-MMP reporter	Hsc70	WNV NS2B-NS3 inh
CC(=O)N=C1SC2CS(=O)(=O)CC2N1c1c(Cl)cccc1Cl (stereo not given)	i	2.0%	-0.01
COc1cc(-c2nnc(SCC(=O)Nc3ccc4c(c3)OCCO4)o2)cc(OC)c1OC	i	-0.3%	.
CCC(C)NC(=O)COc1ccc(Br)c(C)c1 (stereo not given)	i	2.6%	.
COC(=O)CSc1ccc2c(N)c(C(=O)OC)sc2c1	i	6.9%	-0.43
C=CCn1c(SCC(=O)NCc2cccs2)nnc1C1CCCCC1	i	-2.6%	-0.16
COc1ccc(CC(=O)Nc2cc(=O)n(C)c(=O)n2C)cc1	i	-6.0%	-0.7
CC(=O)C1=C(c2ccccc2)NC(=O)NC1c1ccccc1OCC#N (stereo not given)	i	-3.8%	-0.41
COc1cc(S(=O)(=O)N2CCCCCC2)ccc1Cl	i	-6.4%	0.28
CCOC(=O)N1CCN(C(=O)C2CCC(CNS(=O)(=O)c3ccccc3)CC2)CC1 (stereo not given)	i	-2.3%	-0.4
O=C(Nc1nncs1)c1cccc(S(=O)(=O)N2CCCC2)c1	i	2.7%	-0.52
Cc1cc(C)c(S(=O)(=O)N(CC(=O)N2CCOCC2)C2CCCCC2)c(C)c1	i	-1.5%	0.1
CCN(CCNC(=O)CS(=O)(=O)Cc1nc(-c2cccc(OC)c2)oc1C)c1ccccc1	i	-4.2%	-0.91
C#CC(C)(C)NC(=O)CSc1nc2c(c(=O)n(C)c(=O)n2C)n1CCCC	i	-3.7%	1.5
O=C(NCCc1c[nH]c2ccccc12)Nc1cccc2ccccc12	i	-0.7%	.
CC(C)N(C(=O)NC(=O)NCC1CCCO1)S(C)(=O)=O (stereo not given)	i	-3.3%	0.23
COc1ccc(OCCCC(=O)Nc2nnc(C3CCCO3)s2)cc1 (stereo not given)	i	-6.2%	1.1
Cc1cccc(NC(=O)c2cccnc2)c1	i	-4.6%	0.18
C=C(C)C(=O)Nc1ccc(OC(F)(F)C(F)F)c(NC(=O)C(=C)C)c1	i	-2.7%	.
COc1ccc2[nH]cc(CCN=C3SCC(=O)N3C)c2c1	i	-1.0%	-0.75
CC1CCc2nn(CC(=O)NCCN3CCOCC3)cc2C1 (stereo not given)	i	5.8%	-0.67
Cc1ccc(C2NC(=O)c3c(sc(C)c3C)N2)c(O)c1 (stereo not given)	i	1.6%	.
CCn1c(SCC(=O)Nc2ccc3c(c2)OCO3)nc2ccccc21	i	3.4%	.
CC1=CC(=C2C(=O)c3ccccc3C2=O)C=C(C)N1C	i	-5.4%	-0.54
COc1ccc(C2/C(=C(/O)c3ccccc3)C(=O)C(=O)N2CCO)cc1 (stereo not given)	i	0.5%	-0.87
Cc1noc(NS(=O)(=O)c2ccc(NC(=O)c3ccoc3C)cc2)c1C	i	-2.6%	0.23
Cc1ccccc1-c1nnc(SCC(=O)Nc2ccc3c(c2)OCCO3)n1N	i	4.8%	-0.59
COc1ccc(OC)c(N(CC(=O)O)S(=O)(=O)c2ccc(OC)c(OC)c2)c1	i	-5.6%	0.74
CCOc1ccc(OCC)c(NC(=O)CSc2nc3cccnc3n2C)c1	i	4.2%	-0.18
Cc1cc(NC(=O)CSc2nnc(CNc3ccc(F)cc3)n2C2CCCCC2)no1	i	3.8%	0.76
O=C(COC(=O)c1cn(-c2ccccc2)nc1-c1cccs1)NC1CC1	i	-2.1%	-0.14
O=C(OCn1ncc(Br)c(Br)c1=O)c1ccccc1Cl	i	-4.1%	.
CCn1c(SCC(N)=O)nc2c1c(=O)n(C)c(=O)n2C	i	-5.7%	-0.54
CCC(=O)Nc1c(C#N)c2nc3ccccc3nc2n1-c1ccccc1C	i	-9.6%	2.5
O=C(NC(=O)c1cccc(F)c1)OC[C@@H]1CCCN2CCCC[C@H]12	i	2.0%	-0.33
COc1ccc(OC)c(N(CC(=O)Nc2cccnc2)S(=O)(=O)c2ccccc2)c1	i	-3.8%	.
O=C1OCCC1N1C(=O)c2ccccc2S1(=O)=O (stereo not given)	i	-0.2%	-0.18
CCCc1nnc(SCC(=O)N2CCOCC2)n1C	i	-1.3%	.
COc1ccc(N2C(=O)CSC2c2cccc(F)c2)c(OC)c1 (stereo not given)	i	-3.0%	-0.62
CCOCCn1c(=O)c2c(nc3n2CCN3c2ccc(C)cc2)n(C)c1=O	i	6.1%	0.97
O=C(Cn1c(=O)oc2cc(S(=O)(=O)N3CCc4ccccc43)ccc21)N1CCCCC1	i	1.9%	0.35
O=S(=O)(Nc1nc2ccccc2[nH]1)c1ccccc1	i	2.0%	-0.25
COC(=O)c1cc(NCc2cccs2)ccc1N1CCOCC1	i	1.3%	0.54
COc1cc2c(cc1NC(=O)Cn1cnc3c1c(=O)n(C)c(=O)n3C)oc1ccccc12	i	5.8%	1.1
O=C(NCCN1CCOCC1)c1ccc(CS(=O)(=O)c2ccc(Cl)cc2)o1	i	1.5%	-0.78
COc1cccc(C(=O)Nc2nc3c(s2)CN(C)CC3)c1	i	0.7%	.
Cc1ccc(CNC(=O)CSc2nc3ccsc3c(=O)n2NC(=O)c2ccccc2)cc1	i	0.0%	.
COc1cc(NC(=O)c2cccs2)c(C(=O)OCC(=O)NCc2ccco2)cc1OC	i	1.4%	0.04
CCS(=O)(=O)N1CCC(C(=O)NCc2ccccc2OC)CC1	i	-2.2%	0.46
Nc1nc(-c2cccnc2)nn1C(=O)Cc1ccccc1	i	0.0%	1.1
Fc1ccccc1-c1nc(-c2ccccc2)no1	i	8.5%	-0.82

New compounds follow.
SMILES	MT1-MMP reporter	Hsc70	WNV NS2B-NS3 inh
CC(=O)Cc1nsc(Nc2ccc3c(c2)OCCO3)n1	i	3.5%	0.19
CCSc1nc2ccc(OC)cc2cc1C#N	i	-1.7%	.
CN1CCN(c2cc3c(c4c2[nH]c2ccccc24)C(=O)CC(C)(C)C3)CC1	i	0.7%	0.83
Cc1ccc(NC(=O)CN(C)S(=O)(=O)c2cccc3nsnc23)cc1Cl	i	-0.9%	0.92
Cc1cc(C)n2nc3nc4c(cc3c2n1)CCCC4	i	-0.7%	-0.94
CC(C)(C)OC(=O)NCCc1nnc(SCc2ccc(Cl)cc2)o1	i	2.7%	.
c1ccc(-c2cc(N3CCCCC3)ncn2)cc1	i	-3.0%	0.58
c1ccc(-n2ncc3c(N4CCN(CCOc5cccc6ccccc56)CC4)ncnc32)cc1	i	-0.5%	.
Cc1cc(C)n2nc(SCc3cc(=O)oc4cc(O)ccc34)nc2n1	i	8.4%	.
O=C(O)CSc1nc2ccc(Cl)cc2[nH]1	i	-1.7%	-1.2

6 entries from above, with bars between the fields.
Structure | MT1-MMP reporter | Hsc70 | WNV NS2B-NS3 inh
Cc1ccc(NC(=O)CN(C)S(=O)(=O)c2cccc3nsnc23)cc1Cl | i | -0.9% | 0.92
CCSc1nc2ccc(OC)cc2cc1C#N | i | -1.7% | .
CC(=O)Cc1nsc(Nc2ccc3c(c2)OCCO3)n1 | i | 3.5% | 0.19
Cc1cc(C)n2nc(SCc3cc(=O)oc4cc(O)ccc34)nc2n1 | i | 8.4% | .
Cc1cc(C)n2nc3nc4c(cc3c2n1)CCCC4 | i | -0.7% | -0.94
CN1CCN(c2cc3c(c4c2[nH]c2ccccc24)C(=O)CC(C)(C)C3)CC1 | i | 0.7% | 0.83

Next results follow:
SMILES	MT1-MMP reporter	Hsc70	WNV NS2B-NS3 inh
Cc1nnc(SCCN2CCOCC2)n1-c1cccc(Cl)c1	i	3.1%	-0.66
CC(C)(C)NC(=O)C(c1ccco1)N(Cc1ccc2c(c1)OCO2)C(=O)Cn1nnc2ccccc21 (stereo not given)	i	-5.2%	-0.84
Cc1cccc(OCc2nnc(SCC(=O)N3CCN(C(=O)c4ccco4)CC3)n2C)c1C	i	-3.7%	0.67
COC(=O)C1(C)NC(c2cccs2)C2C(=O)N(c3ccc(F)cc3)C(=O)C21 (stereo not given)	i	0.9%	0.17
COc1cccc(-c2nnc(SCC(=O)NCc3ccc4c(c3)OCO4)n2Cc2ccco2)c1	i	-2.3%	.
CCn1cnc2cc(NCc3nc4ccccc4n3Cc3ccccc3)ccc21	i	7.8%	.
O=S(=O)(NC1CCCC1)c1cccc(-c2nnc(-c3ccccc3)o2)c1	i	1.9%	.
COc1ccc(NC(=O)C2=C(C)Nc3ncnn3C2c2ccccc2C(F)(F)F)c(OC)c1 (stereo not given)	i	5.1%	2.4
CC1(C)NC(=O)N(CC(O)COc2ccc(N3C(=O)c4ccccc4C3=O)cc2)C1=O (stereo not given)	i	-5.5%	0.91
CCC1c2ccc(C)n2CCN1C(=O)Nc1ccccc1OC (stereo not given)	i	2.3%	0.49
CCn1cc(C(=O)O)c(=O)c2cc(F)c(N3CCN(C(=O)Nc4ccccc4)CC3)cc21	i	-4.2%	2
COc1ccccc1C(=O)Nc1ccc(N2CCN(S(C)(=O)=O)CC2)cc1	i	7.5%	-0.21
CC1CCCN(CCCNC(=O)CCn2nc(-c3ccccc3)ccc2=O)C1 (stereo not given)	i	-3.6%	-0.34
O=C(COC(=O)c1ccco1)NCc1cccs1	i	3.1%	-0.61
O=C(Nc1ccc2c(c1)OCO2)c1ccc(Cl)s1	i	-0.4%	.
Cc1ccc(Cn2c(=N)n(CC(O)COc3ccccc3)c3ccccc32)cc1 (stereo not given)	i	2.6%	.
Cc1ccc(-n2c(C)cc3c2CC(C)(C)CC3=O)cc1C	i	3.9%	.
COc1ccc(CCN=CC2=C(O)CCCC2=O)cc1OC	i	3.2%	1.1
CCc1cc2c(SCC(=O)c3ccc(Cl)s3)ncnc2s1	i	2.7%	.
COc1ccc2nc(NC(=O)C3CCCN(S(=O)(=O)c4cccc5nsnc45)C3)sc2c1 (stereo not given)	i	-20%	-0.78
O=C(COC(=O)c1cccs1)NC1CCCCC1	i	2.8%	1.9
O=C(c1ccccc1)N1CC(COc2ccccc2)OC(c2ccco2)O1 (stereo not given)	i	-3.7%	0.00084
COc1ccc(-c2n[nH]c3c2C(c2ccc(OC)c(OC)c2)N(c2ccccc2)C3=O)cc1 (stereo not given)	i	-4.1%	.
CCOC(=O)c1cnn(-c2ccccc2)c1-c1ccccc1	i	-6.0%	.
CCOc1ccccc1C(=O)OCC(=O)Nc1ncc(C(F)(F)F)cc1Cl	i	-5.2%	.
Cc1noc(C)c1COC(=O)c1ccc2c(c1)S(=O)(=O)c1ccccc1C2=O	i	-1.5%	-0.59
COCCN1C(=O)c2oc3c(C)cc(C)cc3c(=O)c2C1c1cccc(O)c1 (stereo not given)	i	0.1%	1.3
CC1CCN(C(=O)CSc2nnc(Cc3cccn3C)n2-c2ccc(F)cc2)CC1	i	4.1%	1.1
Clc1ccc(-c2nc(NCCN3CCOCC3)c3ccccc3n2)cc1	i	2.0%	-0.33
Cn1c(=O)c2c(nc(N3CCN(Cc4ccccc4)CC3)n2CC(=O)c2ccccc2)n(C)c1=O	i	4.8%	-0.41
CCN(CCNC(=O)C1CCN(Cc2nc(-c3cccc(Cl)c3)oc2C)CC1)c1ccccc1	i	-1.1%	-0.56
COc1ccc(-c2noc(-c3ccccc3C(=O)NCc3ccco3)n2)cc1OC	i	-7.1%	-0.01
COc1cccc(N2CCN(C(=O)c3[nH]c(C)c(C(C)=O)c3C)CC2)c1	i	1.6%	0.77
CCn1ncc(C2=NOC(C(=O)Nc3cccnc3)C2)c1C (stereo not given)	i	-6.7%	0.2
COc1cc(C2C(C(=O)c3ccc(C)o3)=C(O)C(=O)N2CCc2ccccc2)ccc1O (stereo not given)	i	6.0%	0.39
CCN(C(=O)CN1CCN(c2ccccc2OC)CC1)c1c(N)n(Cc2ccccc2)c(=O)[nH]c1=O	i	2.1%	-0.13
CC1CCCN(S(=O)(=O)c2cccc(-c3cn4cccnc4n3)c2)C1 (stereo not given)	i	0.0%	0.93
OCCN1CN=C(Nc2nc3ccccc3s2)NC1	i	-1.9%	1.1
Cc1ccc(-c2noc(C3CCCN(C(=O)c4c(F)cccc4F)C3)n2)cc1 (stereo not given)	i	-1.0%	-0.83
CON(C)c1nc(OCCNC(=O)COc2ccc(Cl)cc2C)nc(N(C)C)n1	i	0.1%	-0.63
O=C(Cn1cc2c(n1)CCCC2)N1CCOCC1	i	3.7%	-0.42
Cc1cc(N2C(=O)C(=O)/C(=C(/O)c3ccc(F)cc3)C2c2cccc(Br)c2)no1 (stereo not given)	i	-3.6%	0.43
O=C1c2ccccc2C(=O)N1CCCCSc1nnc2ccccn12	i	-4.9%	-1.2
O=S(=O)(Nc1ncnc2c1oc1ccccc12)c1ccc(Cl)s1	i	0.2%	1.3
Cn1c(C(=O)OC(C(=O)NC2CCCCC2)c2cccnc2)cc2sccc21 (stereo not given)	i	1.5%	.
COc1ccccc1NC(=O)COc1ccccc1	i	0.6%	.
C=CCNc1nc(-c2ccccc2)nc(-n2ccnc2)n1	i	-3.3%	-1.1
